B2AR ag – human beta-2 adrenergic receptor agonism by FAP; response, % (no concentration beside the values); Am2.2-beta2AR cells, FAP receptor internalization, flow cytometry; reference of the scale not given here; P07550; 340,000 tested, 0.43% active;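 active = response above a set limit, near 3 SD of response in nonfluorescent compounds, cut at about 42% in these data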;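 note: stock transfer was 100 nL into about 11 µL; a reference agonist was the positive control; negative values mostly stem from fluorescent compounds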
Target sequence (P07550 whole entry, looked up): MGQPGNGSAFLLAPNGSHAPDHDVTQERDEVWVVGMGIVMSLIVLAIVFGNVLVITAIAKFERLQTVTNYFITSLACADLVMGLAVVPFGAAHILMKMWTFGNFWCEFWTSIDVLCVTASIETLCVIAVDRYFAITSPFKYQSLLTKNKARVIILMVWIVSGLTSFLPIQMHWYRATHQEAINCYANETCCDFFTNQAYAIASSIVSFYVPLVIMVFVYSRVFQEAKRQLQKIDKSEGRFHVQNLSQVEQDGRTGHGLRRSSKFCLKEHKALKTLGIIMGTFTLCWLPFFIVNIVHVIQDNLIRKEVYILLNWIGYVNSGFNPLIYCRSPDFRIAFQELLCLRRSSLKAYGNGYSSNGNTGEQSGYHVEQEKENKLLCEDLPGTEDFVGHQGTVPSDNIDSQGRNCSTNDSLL
Numbers without * were called inactive; ! = not active in a repeat. A portion of the library (hit frequency here may not be typical).

Start of the listing, in advance (two entries):
SMILES	B2AR ag
COCC(=O)N1C[C@H]2CON(C)[C@H]2C[C@H]1c1cccc(-c2ccc(C#N)cc2)c1	1
C#CCN1C=CC(=O)[C@@H](OC(=O)Nc2ccc(C)cc2)[C@H]1c1ccccc1Br	6

All compounds of this part, from the first entry:
SMILES	B2AR ag
COCC(=O)N1C[C@H]2CON(C)[C@H]2C[C@H]1c1cccc(-c2ccc(C#N)cc2)c1	1
C#CCN1C=CC(=O)[C@@H](OC(=O)Nc2ccc(C)cc2)[C@H]1c1ccccc1Br	6
CN1OC[C@@H]2CN(Cc3ccccc3)[C@H](c3cccc(-c4ccc(C#N)cc4)c3)C[C@@H]21	1
O=C(NN=Cc1ccccc1)C(Oc1ccccc1)c1ccccc1 (stereo not given)	1
CN(C(=O)c1ccc(NC(=O)Cc2cccc(NC(=O)C3CCN(C(=O)c4ccccc4)CC3)c2)cc1)C1CC1	0
CCN1CCN(S(=O)(=O)c2ccc(Cl)c(C(=O)N(CCc3ccccc3)Cc3ccccc3)c2)CC1	19
COc1cc(C2c3cc4c(cc3OC(C)(N3CCCC3)C2C)OCO4)cc(OC)c1OC (stereo not given)	-4
CC(C)=CCNc1ncnc2c1c(C#N)cn2C1OC(CO)C(O)C1O (stereo not given)	-5
COc1ccc(-c2ccc3c(c2)C2CC3CCN2)cc1 (stereo not given)	3
O=S(=O)(c1ccc(Br)cc1F)N1CCCCC1CCO (stereo not given)	-7
CC[N+]1(C)CCC(O)(c2ccc(OC)cc2)C(C(=O)c2ccc(OC)cc2)C1 (stereo not given)	12
CC(C)C[C@@H](CN)NC(=O)c1nc[nH]c1C(=O)N[C@@H](C)C(=O)CNC[C@H](C)NC(=O)c1nc[nH]c1C(=O)N[C@@H](Cc1ccccc1)C(=O)O	-7
C[N+](C)(C)CCC(=O)N1C/C(=C/c2ccccc2)C(=O)/C(=C\c2ccccc2)C1	-20
NC(=S)NN=C1c2ccccc2-c2c(F)c(F)c(F)c(F)c21	31
COc1ccc(NS(=O)(=O)c2cccc(C(=O)N/N=C(\C)c3cccnc3)c2)cc1	-2
O=C1[C@@H]2[C@@H](CN3CN(c4ccccc4)N=C(c4ccccc4)[C@@]23c2ccccc2)C(=O)N1c1ccccc1	2
CC(C)C[C@@H](CNCC(=O)[C@H](CC(C)C)NC(=O)c1[nH]cnc1C(=O)N[C@@H](C)CN)NC(=O)c1nc[nH]c1C(=O)N[C@@H](CC(C)C)C(=O)O	4
COc1ccc2c(c1)[C@H]1[C@H](CO2)[C@H](c2ccccc2)[C@@]2(C)C(=O)N[C@H](C)C(=O)N12	-2
COc1ccc(CNc2cccnc2)c(OC)c1OC	4
O=[N+]([O-])c1ccc2c(c1)C(=NO)c1cc(F)ccc1-2	3
CC(C)(C)C(=O)N1CCC2CC1c1cc(Cl)ccc12 (stereo not given)	-3
Cn1cnc([N+](=O)[O-])c1Sc1nc(N)nc2c1ncn2C1CC(O)C(CO)O1 (stereo not given)	1
COC1OC(CO)C(N(C)C(C)=O)C1O (stereo not given)	2
COC(=O)[C@@H](Cc1c[nH]c2ccccc12)NCc1cccc(B(O)O)c1	-5
O=C1C=C(NCCc2cc(Br)c(O)c(Br)c2)C(=O)c2ncccc21	0
OC1COC(c2ccccc2)OC1C1OC(c2ccccc2)OCC1O (stereo not given)	-7
CC(=O)Oc1ccc(OC(C)=O)c2c1C1C=CC2CC1	12
COc1ccc(Cl)cc1CC=NNC(=O)c1ccncc1	2
COc1cc2c(c(OC)c1OC)C(c1ccc(O)cc1)CC(=O)O2 (stereo not given)	2
O=C(O)C(SC(C(=O)O)c1ccccc1)c1ccccc1 (stereo not given)	4
COc1ccc(S(=O)(=O)N2CCOCC2)cc1C(=O)Nc1ccc(N2CCCCCC2)cc1	-6
O=C(/C=C/c1ccccc1)Nc1cccc(C(=O)N2CCCC2)c1	-11
CC(C)(C)OC(=O)N(Cc1ccccc1)Cc1ccccc1OCc1cccc(NC(=O)c2ccccc2)c1	-16
Cc1ccc(S(=O)(=O)Nc2ccc3ncccc3c2[N+](=O)[O-])cc1	-5
CC[C@H]1c2[nH]c3ccc(C(C)C)cc3c2[C@@H]2CCN3C(=O)CCC[C@H]1[C@H]23	3
COc1ccc(NC(=O)c2c[nH]c(=O)n(-c3ccc(C)c(C)c3)c2=O)c(OC)c1	3
NC(=O)c1ncn([C@@H]2O[C@H](CNCc3ccc(OCC(=O)Nc4nccs4)cc3)[C@@H](O)[C@H]2O)n1	0
CC[C@H](C)[C@H](NC(=O)OCc1ccccc1)C(=O)OCC(=O)N1CCN(c2ccc(F)cc2)CC1	4
O=C(N/N=C/c1ccc2c(c1)OCO2)c1cc(-c2ccco2)nc2ccccc12	4
O=C(O)CC1CCC1CC(=O)O (stereo not given)	10
COC(=O)C=C1CCC2C3CCC4=CC(=O)C(Br)CC4(C)C3C(=O)CC12C (stereo not given)	32
Cc1cc(C)c(CN2CCN(CCCn3ccc(NC(=O)OCc4ccccc4)nc3=O)CC2)c(C)c1	13
CN1c2ccccc2-c2ccccc2S1(=O)=O	-3
C#CCOCCOCCOCCNc1nc(N2CCN(C(=O)Cn3cc(CCO)nn3)CC2)nc(N2CCN(C(=O)Cn3cc(CCCN=C(N)N)nn3)CC2)n1	6
O=C(O)c1cc(=O)[nH]c2ccccc12	-1
CC(C)=N/N=C1/NC(=O)C(c2ccccc2)S1 (stereo not given)	-8
CC(C)C[C@H](NC(=O)OCC1c2ccccc2-c2ccccc21)C(=O)O	3
CC(C)C[C@H]1CNC(=S)N1CC1CCN(CCC23CC4CC(CC(C4)C2)C3)CC1	-1
CCOC(=O)C1=C(O)/C(=C/c2ccc(-c3ccccc3C(=O)O)o2)SC1=Nc1ccc(C)cc1	-54
CC(=O)CSc1nc(CCc2ccccc2)c(C#N)c(=O)[nH]1	6
COc1ccc(/C=C2/CCCc3ccccc3C2=O)cc1	18
O=S(=O)(c1c(F)cccc1F)N(CCc1ccc(F)cc1)C[C@@H](O)COCc1ccccc1	-2
C/C(=N\Nc1ccc(Cl)nn1)c1ccccc1O	-11
O=C(c1ccccc1)N1CCCCC1	-8
O=c1[nH]nc(SC2CCCCC2)c(=O)[nH]1	5
CC1CCN(S(=O)(=O)c2ccc(Cl)s2)CC1	0
COC(=O)[C@@H](Cc1ccccc1)NC(=O)CC[C@H]1O[C@@H](n2cc(C)c(=O)[nH]c2=O)C[C@@H]1O	-5
CCCCC[C@@H]1C=C(C(=O)O)[C@H](c2ccc(Cl)cc2)N1S(=O)(=O)c1ccc(C)cc1	1
COc1cc2c[n+](C)c3c4ccccc4ccc3c2cc1OC	-20
CCOC(=O)c1c(SCCN2CCCC2)n(-c2ccccc2)c(=S)n(-c2ccccc2)c1=O	53*

Some of these compounds in order of count of non-hydrogen atoms, descending.
SMILES	B2AR ag
O=S(=O)(c1c(F)cccc1F)N(CCc1ccc(F)cc1)C[C@@H](O)COCc1ccccc1	-2
COC(=O)[C@@H](Cc1ccccc1)NC(=O)CC[C@H]1O[C@@H](n2cc(C)c(=O)[nH]c2=O)C[C@@H]1O	-5
C/C(=N\Nc1ccc(Cl)nn1)c1ccccc1O	-11
CC1CCN(S(=O)(=O)c2ccc(Cl)s2)CC1	0

(list continues)
SMILES	B2AR ag
COc1ccc(C2/C(=C(/O)c3ccc4c(c3)CC(C)O4)C(=O)C(=O)N2CCCn2ccnc2)cc1OC (stereo not given)	-2
CC(=O)N1CCOc2ccc(S(=O)(=O)NC[C@H]3O[C@@H](n4ccc(=O)[nH]c4=O)[C@H](O)[C@@H]3O)cc21	-4
O=C1Cc2ccccc2C(=O)N1Nc1ccccc1	5
COc1ccc(Br)cc1/C=N/Nc1ccc(S(=O)(=O)Nc2ccccc2C(=O)O)cc1[N+](=O)[O-]	8
Cn1nc(SCc2ccccc2)c(=O)n(C(c2ccccc2)c2ccccc2)c1=O	3
COC1C(OC(=O)/C=C/C=C/C=C/C=C/C(=O)O)CCC2(CO2)C1C1(C)OC1CC=C(C)C (stereo not given) (tested in a mixture with another compound)	-1
C/C(Nc1ccc(Cl)cc1)=C1/CCOC1=O	2
CC1(C)COC(=S)N1CCC#N	-8
O=C1NC(c2cccc(OCc3ccccc3)c2)Nc2ccccc21 (stereo not given)	1
O=C1c2cccc(NCCCNCCO)c2C(=O)c2cccc(NCCCNCCO)c21	-4
Cc1ccc(NCCCn2cnc3c(OCc4ccccc4)ncnc32)cc1C	1
F[B-](F)(F)COCc1ccccc1Br	7
CCc1ccccc1-n1ncc(C(=O)Nc2ccc(OC)cc2)c1C	4
CC(=O)OC1C(=O)N(Cc2ccccc2)C1c1ccc(C)cc1 (stereo not given)	-2
O=C(O)c1cn(-c2ccc(F)cc2)c2cc(N3CCNCC3)c(F)cc2c1=O	1
Cc1cn(CC(=O)NCCCn2ccnc2)c(=O)[nH]c1=O	-4
Cc1ccc(NC(=O)c2ncn(CCCNCc3ccccc3)n2)cc1C	14
CC(O)C1CCC2C3CCC4CC(O)CCC4(C)C3C(=O)CC12C (stereo not given)	0
N#CC1C=Cc2c(ccc3ccccc23)N1C(=O)c1ccccc1 (stereo not given)	-10
COC(=O)C(C(=O)OC)[C@@H]1C=C[C@H](C[N+](=O)[O-])N(C(C)=O)C1	3
O=C(O)c1ccc(C=NN=Cc2ccco2)cc1	-11
O=S(Cc1ccccc1)Cc1ccccc1	3
O=C(CCN1CCCCC1)N1CCc2c([nH]c3ccccc23)C1c1cccnc1 (stereo not given)	-14
Cc1nc(Nc2ccc(Cl)c(Cl)c2)sc1C(/C=C/c1ccc2c(c1)OCO2)=NNc1ccc([N+](=O)[O-])cc1[N+](=O)[O-]	-119
CC(C)C[C@@H](CN1CCC[C@@H]1CN1C(=O)C(=O)NC[C@@H]1Cc1ccccc1)N1C[C@H](Cc2ccc(O)cc2)N(CC2CCCCC2)C(=O)C1=O	2
CC(C)c1ccc2c(c1)CC[C@H]1[C@](C)(CN)CCC[C@]21C	50*!
O=C1/C(=C\c2ccc(Cl)cc2)CCC1CNc1ccc(Cl)cc1 (stereo not given)	6
COc1ccc(CNS(=O)(=O)CCNCc2ccco2)cc1	1
COc1ccc(C=NNC(=S)NC23CC4CC(CC(C4)C2)C3)cc1OC	1
O=C1CCC[C@@H]2Cc3nc4ccccc4cc3[C@@H]3CCN1[C@H]23	-2
N#CCCCC1(CCCC#N)OCCO1	-3
C/C(=N\NS(=O)(=O)c1ccc(Br)cc1)c1ccc(-n2ccnc2)cc1	17
CC(C)CCCCCCCCCCCCC(=O)NCC(=O)NC1C(O)C(O)C(Nc2ncnc3nc[nH]c23)OC1C(O)CO (stereo not given)	15
O=C(O)C1=CC2C=C(Cl)C=CC2OC1=O (stereo not given)	1
O=C1NC(Cc2ccc(O)cc2)c2nc3cc(Cl)ccc3c(=O)n2-c2cc(Cl)ccc21 (stereo not given)	13
O=C1c2ccccc2C(=O)c2c(/C=C/N3CCCCC3)ccnc21	6
COc1ccc(C=NN=C2c3ccccc3-c3ccccc32)cc1O	-16
Cc1cc(=O)n2c3c(c4c(cc13)c(CN(C)C)cc(=O)n4C)OC2	-8
F[B-](F)(F)c1cc2cc(Br)ccc2s1	-2
Cc1ccc2c(c1)S(=O)(=O)N(C)C(c1ccccc1)=C2	-2
CC(C)NC(=O)Nc1ccc2c(c1)C(=O)N([C@H](C)CO)C[C@H](C)[C@@H](CN(C)C(=O)NC(C)C)O2	3
CCOC(=O)Nc1cc2c(c(N)n1)N=C(c1ccccc1)CN2	11
O=C(Nc1ccc(C(=O)N2CCCCC2)cc1)C1CCCC1	1
CCOC(=O)c1c2c(n(Cc3ccccc3)c1C)C(=O)C(=O)c1ccccc1-2	10
Cc1cn([C@H]2C[C@H](O)[C@@H](CCC(=O)NCc3ccccc3)O2)c(=O)[nH]c1=O	3
CC(=NO)c1ccc2c(c1)C(=NO)c1ccccc1-2	14
O=c1c2ccccc2ncn1CCc1ccncc1	-10
Cn1cc[nH]c1=S	-2

7 entries from above, reformatted:
| Compound | B2AR ag |
| --- | --- |
| COC(=O)C(C(=O)OC)[C@@H]1C=C[C@H](C[N+](=O)[O-])N(C(C)=O)C1 | 3 |
| CN(C(=O)c1ccc(NC(=O)Cc2cccc(NC(=O)C3CCN(C(=O)c4ccccc4)CC3)c2)cc1)C1CC1 | 0 |
| O=C1[C@@H]2[C@@H](CN3CN(c4ccccc4)N=C(c4ccccc4)[C@@]23c2ccccc2)C(=O)N1c1ccccc1 | 2 |
| CC(C)=N/N=C1/NC(=O)C(c2ccccc2)S1 (stereo not given) | -8 |
| O=C1NC(Cc2ccc(O)cc2)c2nc3cc(Cl)ccc3c(=O)n2-c2cc(Cl)ccc21 (stereo not given) | 13 |
| O=C(O)c1cn(-c2ccc(F)cc2)c2cc(N3CCNCC3)c(F)cc2c1=O | 1 |
| O=C(O)CC1CCC1CC(=O)O (stereo not given) | 10 |

More records:
SMILES	B2AR ag
CN(Cc1ccccc1)C(=O)c1cccc(NC(=O)Cc2ccc(NC(=O)C3CCCN(C(=O)C4CCC4)C3)cc2)c1 (stereo not given)	-13
FC(F)(F)c1ccc(-c2cccc3c2C2CC3CCN2Cc2ccccc2)cc1 (stereo not given)	18
COc1ccc(NC(=O)N(C)C[C@H]2Oc3ccc(NS(=O)(=O)c4cn(C)cn4)cc3C(=O)N([C@H](C)CO)C[C@@H]2C)cc1	0
C=CC(=O)N1C/C(=C/c2ccc(F)cc2)C(=O)/C(=C\c2ccc(F)cc2)C1	48*
COc1cc(/C=C/C=C2/CC/C(=C/C=C/c3ccc(O)c(OC)c3)C2=O)ccc1O	-418
O=C1C=C(c2ccccc2)CO1	-6
CC(C)(C)CC(C)(C)c1ccc(O)c(Cc2ccc(Cl)cc2Cl)c1	1
CCOC(=O)c1[nH]c(C)c(/C(C)=N\O)c1C	-4
Cc1cc(C=O)sc1[B-](F)(F)F	-7
C=C1C(=O)C23CCC4C(C)(C(=O)OC)CCCC4(C)C2CCC1(O)C3 (stereo not given)	96*
Cn1c(=O)c2[nH]c(CCC3CCCC3)nc2n(C)c1=O	-22
COc1cc2c(cc1OC)C1C(=O)c3cc(OS(C)(=O)=O)c(OC)cc3C1N(C)C2=O (stereo not given)	-13
CN(C)C(=S)N=c1ssc(=S)n1Cc1cccnc1	-14

Compound activity (PubChem)
